Screening data: PubChem BioAssay, National Center for Advancing Translational Sciences (NCATS)
Lassa entry inh – inhibitors of Lassa virus binding or cell entry. 1.2% of 300,000 active. AID 540256. Lassa virus pseudotype entry inhibition, cell reporter; control for the full effect not named in the record. Potency, µM (top dose mostly 37.9 µM), without a hit: at the highest dose activity change, negative = inhibition, most hits filed as inhibitors; active means well fitted inhibition curve with a large enough effect; inconclusive means small, poorly fitted or top-dose-only effect, or effect the other way; inactive means flat fitted curve, though single readings scatter; tested in HEK293 cells; also: % is scaled to controls: 0 for no effect and ±100 for the full control effect; nearly all actives have a fitted effect of over 50% in size; luciferase read-out
Marburg entry inh – blocks Marburg virus binding to or entry into cells | Marburg virus pseudotyped entry inhibition, cell reporter; control for the full effect not named in the record; about a third of the inactives were read at about 46 µM | Potency, µM (series often up to 37.8 µM), for the others: at the highest dose activity change, negative = inhibition, actives largely listed as inhibitors | 1.8% of 300,000 active | AID 540276; active = well fitted inhibition curve with a large enough effect; inconclusive = small, poorly fitted or top-dose-only effect, or effect the other way; inactive = flat fitted curve, though single readings scatter; tested in HEK293 cells; about a fifth of its hits are not listed in these tables; also: % is scaled to controls: 0 for no effect and ±100 for the full control effect; luciferase read-out
Cruzain inh Det – blocks cruzain activity in presence of Triton detergent. P25779. purified cruzain, Z-FR-AMC fluorescence, 0.01% Triton. Potency, µM, without a hit: max response, negative = inhibition, usual class: inhibitors. 0.43% of 200,000 active. AID 1478; active = well fitted curve in the direction sought with a large enough effect; inconclusive = small, poorly fitted or top-dose-only effect, or another doubt; inactive = no such curve, though single readings can be large; an effect the other way counts as inactive or inconclusive;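 also: plate controls were neutral wells for no effect and buffer without enzyme for full effect; nearly all actives have a fitted effect of over 40% in size; top concentration of the series not given in the record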
Target sequence (P25779 123-467 limits assumed): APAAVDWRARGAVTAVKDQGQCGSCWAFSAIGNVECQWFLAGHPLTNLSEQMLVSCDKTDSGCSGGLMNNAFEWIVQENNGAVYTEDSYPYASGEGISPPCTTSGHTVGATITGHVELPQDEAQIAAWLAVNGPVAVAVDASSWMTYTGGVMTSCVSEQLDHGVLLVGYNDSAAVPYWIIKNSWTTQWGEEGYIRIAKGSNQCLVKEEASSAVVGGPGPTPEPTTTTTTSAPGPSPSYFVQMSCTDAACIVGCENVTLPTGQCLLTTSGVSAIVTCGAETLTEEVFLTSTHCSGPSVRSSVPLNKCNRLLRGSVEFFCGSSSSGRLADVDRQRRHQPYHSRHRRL
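15 min RT preincubation of 1.5 nM cruzain with compound, then 2 uM Z-FR-AMC added; kinetic AMC fluorescence, 60 s delta. Triton X-100 0.01%, pH 5.5.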
Cruzain inh noDet – cruzain (T. cruzi) inhibition without detergent; P25779; purified cruzain, Z-FR-AMC fluorescence, no detergent; Potency, µM, for the others: max response, negative = inhibition, usual class: inhibitors; 2.3% of 200,000 active; active = well fitted curve in the direction sought with a large enough effect; inconclusive = small, poorly fitted or top-dose-only effect, or another doubt; inactive = no such curve, though single readings can be large; an effect the other way counts as inactive or inconclusive;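 also: plate controls were enzyme without inhibitor for no effect and buffer without enzyme for full effect; nearly all actives have a fitted effect of over 40% in size; top concentration of the series not given in the record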
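Purified cruzain at 1.5 nM, pre-incubated 15 min with compound at room temperature in 100 mM sodium acetate pH 5.5, 5 mM DTT, 0.00005% Triton X-100. Reaction started with 2 uM Z-FR-AMC; AMC fluorescence increase over 60 s gives rate.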
NS1 function inh – blocks influenza NS1 protein function; AID 2326; Potency, µM (series often up to 46.1 µM), for inactives: top-dose activity, positive = more growth; 0.4% of 270,000 active; S. cerevisiae slowed by influenza A NS1, growth recovery by OD600; also: actives are rising curves; nearly all actives have a fitted effect of over 50% in size
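Compounds were scored for reversing the slow growth caused by influenza A NS1 in S. cerevisiae, measured by optical density at 600 nm. Assay medium contained 2% galactose at pH 6.0; NS1-free yeast of the same strain were the positive control.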
RE007 growth inh – less growth of the S. pombe RE007 Vpr strain; S. pombe RE007 Vpr strain, BacTiter-Glo ATP luminescence, 24 h; control for the full effect not named in the record; Potency, µM (highest dose often 92.2 µM), without a hit: top-dose activity change, negative = less growth; 0.21% of 360,000 active; AID 651644; active = well fitted falling curve with a large enough effect; inconclusive = small, poorly fitted or top-dose-only effect; inactive = no such curve, though single readings can be large or run the other way;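 also: % is scaled to controls: 0 for no effect and ±100 for the full control effect; nearly all actives have a fitted effect of over 50% in size; the assay follows cell death caused by Vpr and the record does not say whether a fall means rescue or toxicity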
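Fission yeast strain RE007, carrying one chromosomally integrated HIV-1 vpr copy, was seeded at OD 0.01 in PMG+AL medium with 23 nL pinned compound. After 24 h at 30 °C and 99% humidity, viability was read by BacTiter-Glo luminescence.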
SARS PLP yeast – blocks SARS-CoV papain-like protease in a yeast assay | 0.19% of 330,000 active | AID 485353 | Potency, µM (top dose mostly 32.9 µM), for the others: at the highest dose activity, positive = growth rescue | S. cerevisiae expressing SARS-CoV PLpro, growth rescue; control for the full effect not named in the record; also: 0% is about no effect; nearly all actives have a fitted effect of over 55% in size; growth read by luminescence after 48 h
2A StopGo – FMDV 2A StopGo reporter, luciferase signal | Potency, µM (doses to about 57.9 µM), for the others: top-dose signal change, negative = less light | human cells with a luciferase reporter of 2A StopGo recoding; control for the full effect not named in the record | AID 1159524 | 1.2% of 410,000 active; active = well fitted falling curve with a large enough effect; inconclusive = small, poorly fitted or top-dose-only effect; inactive = no such curve, though single readings can be large or run the other way; tested in HEK293T cells; also: % is scaled to controls: 0 for no effect and ±100 for the full control effect; nearly all actives have a fitted effect of over 45% in size; luciferase light after 4 h
* hit, by the source's call; ? = inconclusive; . = no result given; & = joins results of further samples; [ ] = remark or other dose. Unless noted, calls follow the shape of the dose curve; as a rule, active means well fitted rising curve with a large enough effect; inconclusive means small, poorly fitted or top-dose-only effect; inactive means no such curve, though single readings can be large or run the other way. Potency is read from the fitted curve at half-maximal effect. An unsorted share of the library. About 4.5% of those tested had a hit in this group.

SMILES	Lassa entry inh	Marburg entry inh	Cruzain inh Det	Cruzain inh noDet	NS1 function inh	RE007 growth inh	SARS PLP yeast	2A StopGo
C/C=C/c1cc(CN2CCN(c3ccc(OC)cc3)CC2)c(O)c(OC)c1	3%	1%[46.1 µM]	.	.	.	-9%	0%	?
CCOC(=O)c1ccccc1NC(=O)c1n[nH]c(=O)c2ccccc12	14%	-6%	-1.9%	-1%	8%	-3%	3%	-27%
COc1ccccc1NC(=S)NCc1ccco1	6%	29%	2.1%	2%	5%	-14%	-9%	20%
Cc1ccc(C)c(NC(=O)C(=O)NCCc2csc3nc(-c4ccccc4C)nn23)c1	11%[46.1 µM]	.	3.4%	-12%	.	.	.	22µM*
O=C1CCCN1CCCNS(=O)(=O)c1ccc(Br)s1	-1%	14%	.	.	-2%	0%	2%	2%
CN(C)C(=O)c1cccn(Cc2cccc(C(F)(F)F)c2)c1=O	4%[46.1 µM]	8%[46.1 µM]	.	.	2%	5%	2%	-4%
CCn1nc(-c2ccccc2)c(-c2ccccc2)c(C(=O)Nc2ccccc2C#N)c1=O	-2%[46.1 µM]	-24%[46.1 µM]	-2.7%	3%	.	.	.	-1%
Cc1[nH]c2ccccc2c1-c1nc(N)sc1C	.	.	.	.	0%	17%	1%	-15%
Cn1ncc([N+](=O)[O-])c1C(=O)Nc1ccc2c(c1)OCCO2	12%	2%[46.1 µM]	-0.5%	4%	-4%	-1%	0%	?
CC(C)Oc1ccc(C(=O)NC2CCSc3ccccc32)cc1 (configuration not stated)	-6%	2%	.	.	-1%	-16%	-2%	4%
CCOC(=O)C1=C(CC)OC(N)=C(C#N)C1c1cccs1 (configuration not stated)	12%	1%	-4.6%	3%	2%	-3%	0%	.
O=C(C[n+]1ccc(/C=N/O)cc1)NC1CCCCC1	3%	5%&5%[46.1 µM]	.	.	.	17%	-4%	-14%
CCC(=O)N1CCN(C(C)=O)C1c1ccccc1 (configuration not stated)	4%	6%	2.6%	-6%	-3%	4%	-4%	-2%
COc1ccc(C2(c3ccc(OC)cc3)NC(=O)N(CC(=O)Nc3ccccc3)C2=O)cc1	?	?	.	.	-18%	-10%	1%	-8%
Cc1ccc(N(CC(=O)N2CCN(c3cc(C)ccc3C)CC2)S(=O)(=O)c2c(C)nn(C)c2C)cc1	-26%[46.1 µM]	?	-9.5%	?	.	.	.	-29%
O=C(CSc1oc(-c2ccco2)nc1S(=O)(=O)c1ccc(Cl)cc1)NCC1CCCO1 (configuration not stated)	2%	-3%&-7%	-2.0%	-3%	-7%	-7%	6%	.
COc1cccc(NC(=O)CSc2nnc3ccc(-c4ccccn4)nn23)c1	2%	-6%	.	.	.	7%	-3%	-2%
CCc1nnc(NC(=O)C2CCCCN2S(=O)(=O)c2ccccc2)s1 (configuration not stated)	-28%	-2%	.	.	.	-8%	1%	-16%
CCOC(=O)c1c(C)n(C)c2ccc(OCC(O)CN3CCN(C)CC3)cc12 (configuration not stated)	.	-1%	-3.3%	-9%	-1%	-12%	3%	-29%
COCCN(CC(=O)Nc1cccc(C)c1C)C(=O)c1cc2c(s1)CCC2	6%	-16%&-16%	.	.	.	8%	-3%	12%
COCCOC(=O)C1=C(N)OC2=C(C(=O)CC(C)(C)C2)C1c1cccnc1 (configuration not stated)	?	-18%&-18%	7.9%	-8%	-13%	-6%	-2%	-1%
CCC(C)N(C(=O)c1csnn1)C(C(=O)NCc1ccc(F)cc1)c1ccco1 (configuration not stated)	-13%	12%	2.9%	6%	-11%	0%	0%	-1%
O=c1c2ccccc2nc2c3ccccc3c(NCc3ccco3)nn12	6%	3%	-12%	-9%	0%	5%	16%	-9%
COc1cccc(C(C(=O)NC2CCCC2)N(C(=O)c2ccco2)c2ccccc2F)c1OC (configuration not stated)	-6%	?	.	.	7%	6%	-3%	6%
CCOc1ncccc1C(=O)NCc1ccc(OC)cc1	?	?	4.6%	2%	-7%	3%	-14%	-6%

More records follow.
SMILES	Lassa entry inh	Marburg entry inh	Cruzain inh Det	Cruzain inh noDet	NS1 function inh	RE007 growth inh	SARS PLP yeast	2A StopGo
CCOC(=O)C1=C(N)N(c2cc(S(=O)(=O)N3CCOCC3)ccc2Cl)C(=O)C1	4%	13%[46.1 µM]	.	.	.	8%	0%	0%
COc1ccc(C2CC(c3ccc4ccccc4c3OC(C)=O)=NN2C(=O)/C=C/c2ccccc2)cc1 (configuration not stated)	?	17%	-0.6%	7.9µM*	22%	-11%	13%	-16%
COc1ccccc1N1CCN(C(=O)CCNC(=O)Cn2ccc3ccccc3c2=O)CC1	.	23%[46.1 µM]	.	.	-6%	2%	2%	-26%
Cc1ccc(S(=O)(=O)NC(CC(=O)O)c2ccco2)cc1 (configuration not stated)	5%	?	2.4%	-4%	2%	-4%	4%	7%
COC(=O)c1[nH]c2cc(OC)ccc2c1N=CN(C)C	.	.	.	.	2%	34%	0%	-21%
O=C(NCc1ccccn1)c1ccc(OC2CCN(Cc3cccs3)CC2)cc1	.	.	.	.	5%	0%	9%	-4%
COc1ccc(S(=O)(=O)CCC(=O)N2CC(=O)N(CCc3ccccc3)C(=O)C2)cc1	16%	-15%[46.1 µM]	-11%	-4%	-21%	-2%	1%	-13%
N#Cc1nc(-c2ccco2)oc1NCCN1CCOCC1	3%	-7%	-2.6%	2%	-4%	-3%	3%	-5%
O=C(c1nc2ccccc2[nH]1)c1ccccc1[N+](=O)[O-]	24%[46.1 µM]	?	.	.	0%	1%	1%	47%[activator]
Oc1ccccc1C1=NN(c2ccccc2)C(c2ccccc2)C1 (configuration not stated)	.	.	.	.	-90%	?	-12%	23%
Cc1ccc(S(=O)(=O)NC2(C(F)(F)F)C(=O)Nc3c2c(=O)[nH]c(=O)n3-c2ccccc2)cc1 (configuration not stated)	-16%[46.1 µM]	?	-4.8%&-6.2%	-8%&-6%	4%	5%	-17%	?
COc1ccc2c(Cl)c(-c3nnc(SCC(N)=O)n3C)sc2c1	.	.	-1.6%	-14%	-29%	16%	0%	37%[activator]
CN(C)c1nc(Nn2cnnc2)nc(N(C)C)n1	2%	2%[46.1 µM]	.	.	7%	4%	3%	-4%
Cc1ccc(S(=O)(=O)N2CCCc3cc(NS(=O)(=O)c4cc(F)ccc4F)ccc32)cc1	?	.	3.7%	-18%	.	.	.	-30%
COc1ccc(C2(C(=O)NCCc3ccccc3)CCCC2)cc1OC	0%[46.1 µM]	-12%[46.1 µM]	.	.	-4%	9%	3%	-12%
Cc1nc2ccccc2c(=O)n1-c1ccccn1	?	7%	2.0%	0%	-20%	-11%	2%	25%
O=S(=O)(Nc1nc2c(s1)CCCC2)c1ccc2ccccc2c1	?	-13%	-8.0%	0%	1%	-4%	-1%	87%[activator]
CCOc1ccc(N(C)C(=O)CCc2nnc3ccc(NCc4ccco4)nn23)cc1	19%[46.1 µM]	25%[46.1 µM]	.	.	6%	6%	-7%	-4%
Cc1ccc(NC(=O)C(C)Sc2nc3c(c(=O)[nH]2)CCCC3)cc1Cl (configuration not stated)	-1%[46.1 µM]	-15%[46.1 µM]	-4.7%	4%	.	.	.	-16%
CC(C)(C)CC(=O)NCc1ccc(F)cc1	-4%	-4%[46.1 µM]	-0.3%	7%	4%	-4%	-5%	-19%
CN1CCN(CC(=O)NN2CC(=O)N(c3ccc(F)cc3)CC2=O)CC1	.	.	.	.	1%	3%	1%	-2%
CCOC(=O)NC(=O)CSc1nc2ccc(C)cc2[nH]1	6%[46.1 µM]	7%[46.1 µM]	.	.	.	6%	0%	11%
CCOC(=O)c1cncc(C(=O)O)c1	-13%	?	-3.6%	-1%	-15%	16%	9%	-2%
COc1ccc(/C=C2\CCCC3C2=NN(C(=O)CSc2n[nH]c(N)n2)C3c2ccc(OC)cc2)cc1 (configuration not stated)	.	.	.	.	15%	4%	0%	?
O=c1c(Cl)c(Cl)cnn1Cc1nnc(-c2ccc(Cl)cc2)o1	?	?	.	.	.	-22%	-12%	?

(list continues)
SMILES	Lassa entry inh	Marburg entry inh	Cruzain inh Det	Cruzain inh noDet	NS1 function inh	RE007 growth inh	SARS PLP yeast	2A StopGo
CCN(c1ccccc1)S(=O)(=O)c1ccc(C(=O)Nc2ccccc2OC)cc1	?	?	.	.	.	-22%	-18%	4%
CC12CCC(C(=O)Nc3ccc(Cl)cc3)([C@H](Br)C1=O)C2(C)C (some centres not stated)	4%	-12%[46.1 µM]	.	.	4%	-3%	0%	-27%
COc1ccc(C(c2sc3ncnn3c2O)N2CC(C)OC(C)C2)cc1OC (configuration not stated)	.	.	-7.7%	-4%	-1%	7%	17%	43%[activator]
CN(C)S(=O)(=O)c1cccc(NC(=S)NCCCn2ccnc2)c1	2%	4%[46.1 µM]	.	.	.	1%	1%	-5%
O=C(CC1S/C(=N/N=C/c2c[nH]c3ccc(OCc4ccccc4)cc23)NC1=O)Nc1ccccc1 (configuration not stated)	2%	24%	-3.5%	6.3µM*	3%	10%	-18%	-13%
CCS/C(N)=N/N=C/c1cc(C)ccc1O	?	?	-8.8%	-1%	-8%	?	-3%	4%
O=C(COc1cccc(NC(=O)c2cccs2)c1)c1ccc(F)cc1	?	?	-7.6%	-9%	-10%	-20%	-26%	-1%
CCOC(=O)c1c(NC(=O)c2cc(=O)c3cc(Cl)ccc3o2)sc(C)c1C	16%[46.1 µM]	27%[46.1 µM]	0.1%	-12%	.	.	.	-24%
CCOC(=O)C1=C(C)NC(=O)NC1c1ccc(-c2ccccc2F)o1 (configuration not stated)	?	-11%	-3.9%	?	11%	17%	1%	?
O=C(CCl)Nc1ccc(-c2ccccc2)cc1	10µM*	?	.	.	.	4%	-1%	22µM*
Cc1ccc(NC(=O)COC(=O)Cn2cnc3ccccc32)c([N+](=O)[O-])c1	5%	0%	.	.	.	4%	2%	4%
Cc1ccc(NC(=O)CNC(=O)c2ccc(C(C)(C)C)cc2)cc1S(=O)(=O)N1CCOCC1	?	?	.	.	.	0%	1%	-11%
Cn1c(=O)c2c(nc(Br)n2CCc2ccccc2)n(C)c1=O	-2%	?	1.1%	-2%	-7%	23%	0%	?
